H5N1 antiviral: MDCK cell protection from H5N1 avian flu; AID 740, 2007; cytopathic effect, luminescence, 72 h; stronger effect = higher value; no value below 0 was filed and about half of the inactive calls have no number; reference of the scale not given here; hit rate 0.07% among 96,000; inhibition, % at 50 µM; in the data active = inhibition above about 25%
* = called active by the depositor; i = inactive. This is a subset. The share of hits here may be higher or lower than overall.

SMILES	H5N1 antiviral
OCc1cn(-c2ccccc2)nc1-c1ccc2c(c1)OCCO2	i
CCN(CC)S(=O)(=O)c1ccc(Cl)c(C(=O)NCc2ccccc2Cl)c1	1.9
CCOC(=O)c1c(/N=C/c2c(O)n(-c3ccc(F)cc3)c(=S)[nH]c2=O)sc2c1CCCC2	i
CCC(C)NC(=O)C1CCCN(C(=O)Nc2ccc(F)cc2)C1 (stereo unspecified)	0.3
O=C(CS(=O)(=O)c1ccc(Cl)c(Cl)c1)Nc1ccccc1Cl	1.4
C(=N\n1cnnc1)/c1cccc2ccccc12	1.7
CCc1nc(C)cn1S(=O)(=O)c1cc(C)c(OC)cc1C	1.3
Cc1ccc(NC(=O)CC2COc3ccccc3O2)cc1 (stereo unspecified)	i
c1ccc2sc(NC3=NCN(Cc4ccc5c(c4)OCO5)CN3)nc2c1	1.7
CCN(CC)c1ccc(N=Cc2ccc(N(CC)CC)cc2O)cc1	i
CCN(CC(=O)NC1CCS(=O)(=O)C1)c1nc(-c2cccnc2)nc2ccccc12 (stereo unspecified)	2.6
CCc1ccc2c(c1)cc(CN(C(=S)Nc1ccc(Cl)cc1)C1CC1)c1nnnn12	i
N#Cc1ccccc1NC(=O)CSc1nnc(-c2ccccc2O)n1-c1ccccc1	i
N#Cc1c(N)nc2c(c1-c1ccc3c(c1)OCO3)CCCCCC2	0.1
O=C(c1csc2ccccc12)n1cccn1	i

Two of the compounds above, as labelled records:
OCc1cn(-c2ccccc2)nc1-c1ccc2c(c1)OCCO2
- H5N1 antiviral: i
O=C(c1csc2ccccc12)n1cccn1
- H5N1 antiviral: i

Remaining list, next part
SMILES	H5N1 antiviral
CC(C)NC(=O)c1ccccc1NC(=O)Cc1ccc(Cl)cc1	i
O=C(Cn1c(=O)sc2ccccc21)Nc1ccc2c(c1)OCCO2	0.4
C1=C2C[N+]3(CCCC3)CC2Cc2ccc3ccccc3c21 (stereo unspecified)	i
Cn1nc(-c2ccc(Cl)cc2)c2cc(C(=O)NCc3ccco3)sc21	i
C=CCN(CC=C)Cc1c[nH]c2ccccc12	i
C/C(Cl)=C\Cn1c(Nc2ccc(C)cc2)nc2c1c(=O)n(C)c(=O)n2C	0.4
Cc1cc(F)c(F)c(C(=O)NC2CC2)c1Cl	1.4
COC(=O)c1nn(-c2ccc(Cl)cc2)c(=O)cc1Sc1ccccn1	i
Cc1ccc(NC(=S)NC(=O)c2c(-c3ccccc3Cl)noc2C)cc1	0.3
Cc1ccc(OS(=O)Nc2cccc3nccnc23)cc1 (stereo unspecified)	i
Cc1csc2nc(CNC(=O)C3CCCCC3)cn12	1.1
CSc1nnc2c(n1)OC(c1cccn1C)N(C(C)=O)c1ccccc1-2 (stereo unspecified)	i
CCOc1nc(-c2ccc(Cl)cc2Cl)ccc1C#N	i
CCOc1ccc(S(=O)(=O)N(CCO)CCO)cc1-c1nc2c(C(C)(C)C)nn(C)c2c(=O)[nH]1	i
COc1ccc(-c2nc(CS(=O)CC(=O)NCCC3=CCCCC3)c(C)o2)cc1 (stereo unspecified)	1.6
CCOc1cccc(=O)c2c(C)n(CC3CCCO3)c(C)c12 (stereo unspecified)	2.6
Nc1ccc(NC(=O)c2ccccc2)c2c1C(=O)c1ccccc1C2=O	0.0
Cc1ccc(NS(=O)(=O)c2ccc(OCC(=O)N3CCOCC3)cc2)cc1	0.4
Cc1ccc(C)n1-c1ccc(N2CCOCC2)cc1	1.8
CCCCOc1ccc(S(=O)(=O)Nc2cccnc2)cc1	i
CC(C)c1ccc(CN(C(=O)C2COc3ccccc3O2)C2CCS(=O)(=O)C2)cc1 (stereo unspecified)	4.1
Cc1ccc(OCc2nnc(SCC(=O)C(C)(C)C)n2Cc2ccco2)cc1	0.1
Cc1ccccc1C(=NC(=O)c1ccccc1)c1ccccc1	i
COc1ccccc1Nc1nc(-c2cccc([N+](=O)[O-])c2)nc2ccccc12	i
COc1ccc(CNc2nc3nc(C)c(Cl)c(=O)n3[nH]2)cc1OC	i
Cc1noc(NS(=O)(=O)c2ccc(NC(=O)C34CCC(CC3)C4)cc2)c1C	0.0
C=CCSC1=C(C#N)C(c2ccc(C(C)C)cc2)CC(=O)N1 (stereo unspecified)	i
Cc1cc(-c2ccc(/C=N/n3cnnc3)o2)c([N+](=O)[O-])cc1C	2.1
COCCCN1C(=O)C(=O)/C(=C(/O)c2ccccc2)C1c1ccc2c(c1)OCO2 (stereo unspecified)	i
CN1/C(=c2/s/c(=C3/C(=O)N(c4ccccc4)NC3=Nc3ccccc3)n(C)c2=O)C(C)(C)c2ccccc21	i

Structures shown so far that have an NH in an aromatic ring (four):
SMILES	H5N1 antiviral
CCOC(=O)c1c(/N=C/c2c(O)n(-c3ccc(F)cc3)c(=S)[nH]c2=O)sc2c1CCCC2	i
C=CCN(CC=C)Cc1c[nH]c2ccccc12	i
CCOc1ccc(S(=O)(=O)N(CCO)CCO)cc1-c1nc2c(C(C)(C)C)nn(C)c2c(=O)[nH]1	i
COc1ccc(CNc2nc3nc(C)c(Cl)c(=O)n3[nH]2)cc1OC	i

Additional records.
SMILES	H5N1 antiviral
Cc1c(C(=O)NCCC2=CCCCC2)oc2ccc(S(=O)(=O)N3CCOCC3)cc12	i
Cc1nnc(SCC(=O)N2CCCCC2)s1	i
CCOc1cccc(/C(O)=C2/C(=O)C(=O)N(CCOC)C2c2ccc(C)o2)c1 (stereo unspecified)	0.1
CC(C)Cc1nnc(NS(=O)(=O)c2ccc(Cl)cc2)s1	2.1
COc1ccc(Nc2ncccc2C(=O)NCc2ccccc2)cc1	i
COC(=O)CSc1nnc(CNC(=O)c2ccc(S(=O)(=O)N3CCCCC3)cc2)n1C	0.2
Cc1cc(C)n2nc(/C(C#N)=C/c3ccccc3)c(C#N)c2n1	i
CCCNc1nc(N)nc(-c2cc(Cl)ccc2OC)n1	i
C=CCN1C(=O)/C(=C\c2ccc(C)cc2)N=C1SCC(=O)NCCC	i
Cc1cc2cc(C(c3nnnn3Cc3ccccc3)N3CCc4ccccc43)c(=O)[nH]c2cc1C (stereo unspecified)	i
COc1ccc2c(c1OC)C(=O)N1c3ccccc3COC21 (stereo unspecified)	i
COCCCN=CC1=C(O)CC(C)(C)CC1=O	0.6
Cc1ccc(S(=O)(=O)NC(CC(N)=O)C(=O)O)cc1 (stereo unspecified)	0.8
CCOC(=O)c1c(CC(C)C)csc1NC(C)=O	0.3
CCOc1ccccc1NC(=O)C1C2C=CC(O2)C1C(=O)O (stereo unspecified)	0.3
CC1CCCCC1NC(=O)CN1C(=O)NC(C)(c2ccc(OC(F)F)cc2)C1=O (stereo unspecified)	i
N#Cc1c(NC(=O)CCCN2C(=O)c3ccccc3C2=O)oc(-c2ccccc2)c1-c1ccccc1	1.2
O=C(Cc1ccccc1)Nc1nc2ccccc2[nH]1	i
COc1cccc(/C=N/n2c(N)c(S(=O)(=O)c3cccs3)c3nc4ccccc4nc32)c1	i
c1ccc(-c2csc3ncn4nnnc4c23)cc1	i
O=C(CCN1C(=O)c2ccccc2C1=O)N1CCN(C2c3ccccc3-c3ccccc32)CC1	0.2
Cc1ccc(N(C(=O)Cn2nnc3ccccc32)C(C(=O)NCc2ccco2)c2ccc(C)o2)cc1 (stereo unspecified)	i
CCCc1nnc(SCC(=O)Nc2ccc(OC)cc2)n1N	0.8
O=C(c1ccncc1)N1CCN(c2ccc(F)cc2)CC1	i
CC1CCc2nn(CC(=O)NCCN3CCCCC3C)cc2C1 (stereo unspecified)	1.7
CC(=O)c1cccc(NC(=O)N2CCCC2C(=O)NCCC(C)C)c1 (stereo unspecified)	i
COC(=O)C1=C(C)NC(=O)/C1=C\c1cc(C)n(-c2cc(C)cc(C)c2)c1C	i
COc1cc2cc(C(c3nnnn3C3CCCC3)N3CCCCC3)c(=O)[nH]c2cc1OC (stereo unspecified)	0.8
Cn1c(C(O)c2ccccc2F)nc(Cl)c1Cl (stereo unspecified)	i
C=C(C)Cn1c(SCC(=O)O)nnc1-c1ccc(C(C)(C)C)cc1	0.3
CC(CN1CCOCC1)OC(=O)c1ccccc1Br (stereo unspecified)	0.3
CCCOc1ccc(CCc2n[nH]c(=S)n2Cc2ccccc2)cc1	2.9
Cc1ccccc1Nc1nc(-c2sc(NC(=O)c3ccc([N+](=O)[O-])cc3)nc2C)cs1	i
Nc1nc2c(s1)C(=O)CCC2	0.6
NC(=O)c1c(NC(=O)CSc2nnc(-c3ccccc3)n2CC2CCCO2)sc2c1CCC2 (stereo unspecified)	0.0
CCn1c(COc2cccc(OC)c2)nnc1SCC(=O)Nc1cccc(OC)c1	i
CC(=O)C(Sc1ccc2nnc(-c3ccc(C)cc3)n2n1)C(C)=O	2.0
O=C(NCCN1C(=O)C2C3C=CC(C3)C2C1=O)N1CCOCC1 (stereo unspecified)	0.2
CCCc1nc2ccccc2c(=O)n1-c1ccccc1OC	1.6
Cc1ccc(-c2cc(C(=O)N3CCN(c4ccc(F)cc4)CC3)c3ccccc3n2)o1	i
Cc1cc(Nc2ccc(F)cc2F)n2nc(C)nc2n1	i
COc1ccc(OC)c(S(=O)(=O)NCCC2=CCCCC2)c1	1.3
Cc1c(C=O)c2ccccn2c1C(=O)c1ccccc1	i
O=C(Nc1ccccc1Sc1ccccc1)C1CCCO1 (stereo unspecified)	i
Cc1nc(-c2ccccc2)sc1C(=O)CSc1ccc(Cl)cc1	i

The closing six entries of the part before open the next one.
SMILES	H5N1 antiviral
Cc1ccc(-c2cc(C(=O)N3CCN(c4ccc(F)cc4)CC3)c3ccccc3n2)o1	i
Cc1cc(Nc2ccc(F)cc2F)n2nc(C)nc2n1	i
COc1ccc(OC)c(S(=O)(=O)NCCC2=CCCCC2)c1	1.3
Cc1c(C=O)c2ccccn2c1C(=O)c1ccccc1	i
O=C(Nc1ccccc1Sc1ccccc1)C1CCCO1 (stereo unspecified)	i
Cc1nc(-c2ccccc2)sc1C(=O)CSc1ccc(Cl)cc1	i
C/C(CC(=O)Nc1ccc(OCc2ccccc2)cc1)=N\NC(=O)C(=O)Nc1ccccc1C	i
c1ccc2[nH]c(SCc3ccc(-c4nnco4)cc3)nc2c1	i
CSc1ccc(-c2nc(CSCC(=O)N3CCOCC3)c(C)o2)cc1	4.0
O=Cc1ccc2noc(-c3ccc(F)cc3)c2c1	0.7
Brc1ccc2c(c1)CNc1c(ncnc1N1CCOCC1)O2	i
CCSc1nc(-c2ccc(OC)cc2)n(-c2nc3ccccc3s2)n1	2.6
Cc1cccc(-n2ncc3c(NC4CCCCC4)ncnc32)c1	i
Cc1cnc(C(=O)Nc2nnc(C(C)C)s2)cn1	0.9
CCc1ccc(Nc2nnc(SCn3nnc4ccccc4c3=O)s2)cc1	1.2
CCC(CC)C(=O)NCc1ccccc1OC	i
Cc1sc2nc(C3CC3)nc(SCC(=O)N3c4ccccc4CC3C)c2c1C (stereo unspecified)	0.5
O=C(c1cc(Cl)nc2ccccc12)N1CCCCC1	1.7
COc1cc(/C=N/NC(=O)c2cncc(Br)c2)ccc1OC(=O)c1ccc2c(c1)OCO2	0.6
O=C(O)CN(c1ccccc1)C1SC(=O)NC1=O (stereo unspecified)	i
CC(C)N1C(=O)C2C(C(=O)NC3CCCCC3)C3C=CC2(O3)C1C(=O)NC1CCCC1 (stereo unspecified)	0.5
CCCCOc1ccc(Cl)cc1CSc1n[nH]c(C)n1	i
COc1ccc(NC(=O)CN2CCN(S(=O)(=O)c3ccc(C(C)C)cc3)CC2)cc1OC	1.4
CC(C)(CO)NC(=O)C(c1ccccc1)c1ccccc1	i
c1ccc(Cn2ncc3c(N4CCCCC4)ncnc32)cc1	i
COc1ccccc1C1C(C(=O)c2sc(C)nc2C)=C(O)C(=O)N1CCN1CCOCC1 (stereo unspecified)	i
O=C(CSc1nc2ccccc2[nH]1)NC1CCS(=O)(=O)C1 (stereo unspecified)	0.2
COC(=O)c1ccc(NC(=O)CSc2nnc(COc3c(C)cccc3C)o2)cc1	0.2
COc1ccc(NCc2nnc(SCC#N)n2-c2ccccc2OC)cc1	1.1
CC(=O)c1cccc(-n2nnnc2SCC(=O)Nc2cccc(NC(=O)c3ccco3)c2)c1	0.6
O=c1c(C=NCCN2CCNCC2)c(O)n(C2CCCCC2)c(=O)n1C1CCCCC1	0.6
O=C(Nc1ccc2c(c1)OCO2)C(c1ccccc1)N1CCN(C(=O)c2ccco2)CC1 (stereo unspecified)	i
Cc1ccccc1N(C(=O)Cn1nnc(-c2cccs2)n1)C(C(=O)NCCC(C)C)c1ccco1 (stereo unspecified)	2.1
O=C(Nc1ccccc1C(F)(F)F)c1cc(S(=O)(=O)N2CCC3(CC2)OCCO3)ccc1F	0.1
CCCCc1cc(=O)oc2cc(C)cc(O)c12	i
O=C(c1ccc(COc2ccccc2Cl)o1)N1CCN(Cc2ccc3c(c2)OCO3)CC1	0.8
Clc1ccc(CSc2nccn2Cc2ccccc2)cc1	0.1
CCOc1cc(CNC2CCCC2)cc(Cl)c1OCc1ccccc1	i
COC(=O)c1ccc(CSc2nc3c(c(=O)n2-c2ccccc2)SCC3)o1	0.5
COC(=O)c1c(NC(=O)c2cnccn2)sc2c1CCC2	i
COC(=O)c1ccc(OCCn2cnc3ccccc3c2=O)cc1	i
Clc1ccc(C(c2ccccc2)N2CCNCC2)cc1 (stereo unspecified)	i
O=C1CN(c2nc(-c3ccccc3)c3cc(Br)ccc3n2)c2ccccc2N1	i
O=C(c1ccccc1F)c1cn(CC(=O)N2CCOCC2)c2ccccc12	0.1
CCOC(=O)N1CCN(S(=O)(=O)c2cccc3ccc(C)nc23)CC1	1.7
COc1cccc(-c2cc(C(=O)Nc3cc(OC)c(OC)c(OC)c3)no2)c1	0.2
O=C(/C=C/c1ccc(Cl)cc1Cl)NC(=S)Nc1ccccn1	0.9
CCCn1nc2cc(C(=O)NC3CCCc4ccccc43)ccc2c1OCC (stereo unspecified)	0.1
Cc1nn(-c2ccccc2)c2sc(-c3n[nH]c(=S)o3)cc12	0.5
